Bead autofluor = counter-screen for toxin protease inhibitors: compound fluorescence; compound autofluorescence counterscreen, microsphere flow cytometry; stronger effect = higher value; fluorescence intensity (test concentration not listed); actives 3.1% (n = 360,000);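 active = at least 3 SD above the mean of all compounds, about 16000 in these data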;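 also: 100 nL of 1 mM stock went into each well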
BJeLR lethal = kills HRASV12-expressing BJeLR cells; AID 1554; BJeLR (HRASV12) viability, CellTiter-Glo ATP luminescence, 48 h; reference of the scale not given here; inhibition, % (test concentration not listed); actives 0.17% (n = 300,000);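 active = replicate mean above 50%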;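 also: 50 nL library stock added to about 25 µL; numbers are from one replicate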
Sa RN4220 lethal = kills Staphylococcus aureus RN4220 | S. aureus RN4220 growth, OD600, 16 h | inhibition, % (no concentration beside the values) | actives 0.33% (n = 330,000);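 active = z-score of -3 or lower and OD600 up to 0.18 on both plates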;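 also: plate controls were untreated cells for no effect and reference antibiotic for full effect; stock transfer was 100 nL into about 80 µL; one replicate is shown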
Mtb hypoxia inh = inhibitors of hypoxia-regulated fluorescent reporter in Mycobacterium tuberculosis; M. tuberculosis hypoxia-regulated fluorescent reporter, fluorescence; fluorescence inhibition, % (test concentration not listed); actives 0.1% (n = 300,000); AID 1159583;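 active = 35 to 45% if threefold the growth effect, above 45% if 1.5-fold the growth effect; inactive = the rest, general growth blockers included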;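 also: wells of about 50 µL received 100 nL stock; 0% = vehicle wells and 100% = reference inhibitor wells; whole bacteria with a GFP reporter of the hypoxia response; strong numbers were not always called active; many hits fall short of the cut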
PrP UTR inh = suppresses PrP 5' UTR mRNA reporter expression. cell-based PrP 5' UTR mRNA reporter, plate reader. inhibition, % (concentration not given with the values). actives 0.35% (n = 340,000). AID 488862;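 active = every replicate at 50% or more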;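 also: 0 = median of the neutral control wells; tested in H4 reporter cells; numbers are from one replicate; inactives centre near -14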
Sa ugtP lethal = growth inhibition of S. aureus ugtP deletion strain; S. aureus RN4220 ugtP deletion, OD600 growth, 16 h; some inactives read as strong as hits; growth inhibition, % (concentration not given with the values); actives 0.54% (n = 330,000);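 active = z-score under -3 and OD600 up to 0.15 on both plates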;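 also: plate controls were untreated wells for no effect and antibiotic for full effect; wells of about 80 µL received 100 nL stock; the first replicate is given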
Mtb hypoxia inh growth = recorded beside Mtb hypoxia inh, whose call it bears; growth inhibition, %; measured here: M. tuberculosis growth (absorbance);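 0% = vehicle and 100% = reference antibiotic; read after six days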
Starred values were filed as active, the others as inactive; · = no result given.

smiles,Sa RN4220 lethal,Mtb hypoxia inh,PrP UTR inh,Sa ugtP lethal,Bead autofluor,BJeLR lethal,Mtb hypoxia inh growth
CCCCC(CC)CNC(=O)CCCCn1c(=O)[nH]c2ccsc2c1=O (configuration not stated),3.6,14.7,-24.3,-2.3,4646,-4.6,7.3
CC1=NN(c2nc(-c3ccccc3)cs2)C(=O)C1,14.0,·,-3.4,12.9,4917,5.8,·
COC(=O)c1cn(NC(=O)Cc2ccccc2OC)c(=O)c2ccccc12,10.7,9.3,-11.9,5.9,3352,-0.7,8.5
O=[N+]([O-])c1ccc(N=Nc2c(O)[nH]c3ccc(F)cc23)cc1,-10.9,1.6,·,-17.8,4400,3.4,-0.6
CCCCc1nc2sc3c(c2c(=O)n1NC(=O)c1ccco1)CC(C)(C)OC3,0.8,-5.6,-23.6,-9.2,3552,4.0,-5.4
COc1ccc(S(=O)(=O)N(CC(=O)NN=Cc2ccccc2C(=O)O)c2ccccc2OC)cc1,4.6,6.2,·,3.9,·,·,-3.5
COc1cc(OC)cc(C(=O)Nc2cccc(-c3ccc4nncn4n3)c2)c1,2.5,4.8,·,6.4,·,0.8,-4.1
O=C(O)c1c2c(nc3ccccc13)/C(=C/c1ccc(O)cc1)CC2,1.2,-2.3,27.6,-13.6,4404,-0.8,4.2
NC(=O)Cc1ccc(C(=O)c2ccccc2F)s1,4.9,6.2,-28.0,2.0,2302,0.2,-2.0
O=C(COc1ccccc1[N+](=O)[O-])NC1CC1,6.6,10.8,-18.7,14.1,3577,1.4,6.3
COC(=O)/C(=C/c1ccco1)NC(=O)c1ccc(Br)o1,2.4,11.5,-24.2,8.6,2559,-7.3,10.4
Cc1occc1-c1nnc(SCCNCCO)o1,4.9,-3.5,1.7,0.4,4125,-4.2,5.5
Cc1ccc(CNC(=O)/C=C/c2ccccc2Cl)cc1,-4.5,15.5,-79.7,-4.1,2835,-6.7,1.9
Cc1nn(Cc2ccccc2)c(C)c1CNC(=O)CN=C1NS(=O)(=O)c2ccccc21,0.9,-3.1,-5.2,4.1,5766,·,4.9
O=C(COC(=O)CC1CCCC1)Nc1cc2c(cc1Cl)C(=O)c1ccccc1C2=O,-2.3,-12.1,-89.1,-8.9,2359,5.1,-8.5

Compound profiles, as listed above. Values in the order: Sa RN4220 lethal, Mtb hypoxia inh, PrP UTR inh, Sa ugtP lethal, Bead autofluor, BJeLR lethal, Mtb hypoxia inh growth
O=C(COc1ccccc1[N+](=O)[O-])NC1CC1 across the screens: 6.6, 10.8, -18.7, 14.1, 3577, 1.4, 6.3
COC(=O)/C(=C/c1ccco1)NC(=O)c1ccc(Br)o1 across the screens: 2.4, 11.5, -24.2, 8.6, 2559, -7.3, 10.4
CCCCC(CC)CNC(=O)CCCCn1c(=O)[nH]c2ccsc2c1=O (configuration not stated) across the screens: 3.6, 14.7, -24.3, -2.3, 4646, -4.6, 7.3
CCCCc1nc2sc3c(c2c(=O)n1NC(=O)c1ccco1)CC(C)(C)OC3 across the screens: 0.8, -5.6, -23.6, -9.2, 3552, 4.0, -5.4
O=C(COC(=O)CC1CCCC1)Nc1cc2c(cc1Cl)C(=O)c1ccccc1C2=O across the screens: -2.3, -12.1, -89.1, -8.9, 2359, 5.1, -8.5

Additional compounds
smiles,Sa RN4220 lethal,Mtb hypoxia inh,PrP UTR inh,Sa ugtP lethal,Bead autofluor,BJeLR lethal,Mtb hypoxia inh growth
CC(=O)NCC(=O)OCC(=O)c1ccc(Br)cc1,12.4,-0.9,-11.1,-2.4,8435,-2.8,-3.5
CC(C)n1c(SCC(=O)Nc2ccccc2N2CCCCC2)nc2c1c(=O)n(C)c(=O)n2C,1.1,3.2,-16.6,-0.4,11071,-10.8,6.7
O=C(CN1CCOc2ccccc21)NCc1ccco1,2.0,·,-1.6,0.6,5873,2.3,·
NC(=NOC(=O)CCCOc1ccccc1)c1cccc([N+](=O)[O-])c1,4.3,5.3,·,10.0,·,·,4.1
O=C(c1ccc(OCC2CCCO2)cc1)N1CCc2ccccc2C1 (configuration not stated),5.2,12.2,-23.3,15.9,3953,4.5,8.1
CCC(=O)Nc1cc(C(=O)OCC(=O)c2ccccc2)ccc1C,·,·,-72.0,·,1957,-3.5,·
O=C(c1ccc2noc(-c3ccccc3)c2c1)N1CCN(c2ccccc2)CC1,0.2,8.3,-1.8,5.2,5932,·,-0.5
Cc1ccc(/C=C2/N=C(c3ccccc3)NNC2=O)cc1,9.2,6.9,·,-5.6,6251,3.8,-0.5
O=c1c(-c2ccc([N+](=O)[O-])cc2)coc2c(O)c(O)ccc12,·,·,-6.6,·,3533,2.7,·
Cc1ccc(CNS(=O)(=O)c2c(C)nc3scc(C)n3c2=O)cc1,4.2,-0.7,-20.6,1.7,5921,1.1,0.1
Cc1ccc(C(=O)/C=C/NNC(=O)c2ccccc2O)cc1,·,·,-30.0,·,3485,3.9,·
Cc1cc(C)n(Cc2ccccc2Cl)n1,4.7,·,-18.3,5.7,4347,10.7,·
COC(=O)COc1ccc(C=NNC(=O)CN(c2ccccc2OC)S(=O)(=O)c2ccccc2)cc1,3.0,13.3,·,9.6,·,·,0.4
CCOC(=O)c1nn(-c2cccc(OC)c2)c2nc(Nc3ccccc3)cc(=O)n12,·,·,-18.4,·,10542,4.5,·
O=C(COC(=O)c1cc(=O)[nH]c(=O)[nH]1)Nc1ccccc1F,3.7,6.5,-17.8,4.4,3587,·,5.2
CC(=O)Nc1ccc(NC(=O)c2cc(C3CC3)nc3c2cnn3C(C)C)cc1,-1.0,12.0,-0.5,-0.6,4115,·,4.4
O=C(/C=C/c1cccs1)N1CCC2(CC1)Oc1ccc(F)cc1C(=O)C21CC(c2ccccc2)=NO1 (configuration not stated),·,·,-9.5,·,2952,1.9,·
COc1ccc(CC(=O)N[C@@H]2c3ccccc3CC[C@H]2OCc2ccccc2)cc1,0.0,-7.1,-6.8,-0.1,3920,·,-1.7
CC(=O)Nc1ccc(NC(=O)Cn2cnc3c(nnn3Cc3ccc(F)cc3)c2=O)cc1,-1.6,-1.4,-8.8,-3.8,1999,1.6,2.3
OC(CNCc1cccc(Cl)c1)c1ccccc1 (configuration not stated),-1.5,3.6,-46.5,5.1,1911,-5.8,0.0
Cc1cc(NC(=O)CSc2ccc3c(c2)OCCO3)no1,-0.1,·,-11.9,12.7,2200,-8.1,·
CC(=O)C1=C(C)NC(SCC(=O)c2ccc(F)cc2)=C(C#N)C1c1ccco1 (configuration not stated),10.7,5.2,-9.7,59.6,7908,1.4,4.1
C=C(C)C1Cc2c(C)nn(-c3ccccn3)c2C1 (configuration not stated),-0.7,5.4,-3.9,7.4,2395,-0.6,5.4
O=C(Nc1cccnc1)c1cccc(S(=O)(=O)N2CCOCC2)c1,6.4,8.5,-23.8,10.3,15344,-3.1,0.1
CC(C)C(=O)NNC(=O)c1csc(-c2cccs2)n1,1.6,2.8,-4.0,15.0,4004,2.0,1.2
CCOC(=O)CCc1c(C)n[nH]c1C,6.0,9.6,-3.0,6.2,2530,-1.1,-1.4
COc1cc(/C=N/n2cnn(Cc3ccccc3Cl)c2=S)cc(OC)c1OC,·,·,-5.8,·,3534,-3.0,·
CCOc1ccc2nc(SC3CC(=O)N(c4ccccc4)C3=O)sc2c1 (configuration not stated),4.3,4.7,-40.7,6.3,3950,5.0,3.2
O=C1C=CCCC1,3.5,-2.9,-23.3,6.0,5939,·,1.0
COc1cc2cc(CN(C(=O)Nc3ccccc3)C3CCCC3)c(=O)[nH]c2cc1OC,-1.7,-2.3,-6.8,-0.9,3385,-1.3,11.8

Single entries from the results shown:
Entry for CC(=O)Nc1ccc(NC(=O)c2cc(C3CC3)nc3c2cnn3C(C)C)cc1 in Sa RN4220 lethal: -1.0
Entry for CCOc1ccc2nc(SC3CC(=O)N(c4ccccc4)C3=O)sc2c1 (configuration not stated) in Bead autofluor: 3950

(listing goes on)
smiles,Sa RN4220 lethal,Mtb hypoxia inh,PrP UTR inh,Sa ugtP lethal,Bead autofluor,BJeLR lethal,Mtb hypoxia inh growth
CCOc1ccc(NC(=O)N2CC=C(n3c(=O)[nH]c4ccccc43)CC2)cc1,-13.3,12.4,-15.2,-1.7,2921,12.6,11.3
CCCC(CCC)=NNc1ccc(S(=O)(=O)Nc2ccccc2OC)cc1[N+](=O)[O-],-4.7,-10.9,-10.3,-10.9,2346,-0.9,-2.5
CCOc1nc(C)ccc1-c1noc(-c2ccncc2)n1,3.8,7.6,-22.6,14.2,6757,-5.4,3.9
COc1cccc(C(C(=O)NC2CCCC2)N(C(=O)c2ccco2)c2ccccc2)c1OC (configuration not stated),4.0,-15.4,-5.1,4.3,4532,-6.0,-3.8
COc1ccc(CCNC(=O)c2ccc(Br)cc2)cc1,-1.9,·,·,14.9,3814,-0.1,·
O=C(NNc1ccccn1)C(=O)NNS(=O)(=O)c1ccc(Cl)cc1,·,·,-14.0,·,23954*,-1.5,·
CCOC(=O)Cn1cc(C(=O)c2ccccc2F)c2ccccc21,6.9,4.9,-21.9,2.9,2909,-0.6,0.1
CC1CN(c2nc3nonc3nc2N2CCSCC2)CC(C)O1 (configuration not stated),2.0,-3.8,·,-6.2,·,·,11.9
O=C(NN=Cc1ccc(OC(=O)c2ccccc2)cc1)c1ccc(CN2CCOCC2)cc1,3.0,3.8,·,-9.2,·,·,11.4
COCC(=O)NC1CCN(CC(=O)Nc2ccc(OC)cc2[N+](=O)[O-])CC1,6.4,-1.1,-8.1,4.6,10235,1.2,6.0
CNC(=O)c1csc(-c2ccccc2)n1,2.4,6.6,-32.9,9.9,22297*,5.1,9.0
CCNC(=O)c1ccc(OCC(=O)Nc2ccc(F)cc2)c(OC)c1,0.9,-4.5,4.1,-1.4,4376,23.1,6.3
CCCNC(=O)c1nn2cc(Br)cnc2c1Cl,4.0,-1.9,-9.0,3.3,4320,-2.2,14.3
CCOC(=O)c1nnn(-c2ccc([N+](=O)[O-])cc2)c1C,3.1,15.4,-22.5,1.7,4055,-1.2,7.7
CN1C(C(=O)NCc2ccco2)CC2Cn3c(nc4cc(Cl)c(Cl)cc43)C21 (configuration not stated),3.4,23.6,-10.6,4.0,3511,-11.1,10.0
COc1ccc(S(=O)(=O)Nc2cc3c4c(c2)CC(=O)N4CCC3)cc1,2.0,8.0,-5.0,-1.3,5066,2.9,-6.4
Cc1cc(N)n(-c2ccc(C(=O)O)cc2)n1,6.4,2.2,-5.1,6.7,2007,3.8,8.7
COc1ccccc1N1CCN(CCCNC(=O)Cn2ncc3c([nH]c4ccccc43)c2=O)CC1,3.6,1.9,-2.3,-0.6,4595,-8.4,-8.8
CCOc1ccc(NC(=O)c2ccc(NC(=O)c3cn4c5c(c(N6CCN(C)CC6)c(F)cc5c3=O)OCC4C)cc2)cc1 (configuration not stated),97.5*,·,-8.2,98.2*,2110,-5.1,·
O=C(CC(Nc1ccc(F)cc1)C(=O)OCC(=O)c1cccs1)c1ccccc1 (configuration not stated),16.9,1.7,-81.8,28.9,8896,-1.1,5.6
COc1cc(/C=C/C(=O)OCC(=O)NCC2CCCO2)ccc1OCC#N (configuration not stated),·,·,-18.0,·,10064,-1.8,·
Clc1ccc(NNc2ccnc3cc(Cl)ccc23)cc1,-8.5,·,-28.0,-14.2,8204,-1.7,·
CCC(Sc1nc(=O)cc(N)n1-c1ccccc1)C(=O)Nc1cc(C)on1 (configuration not stated),1.6,7.3,-25.4,5.4,5595,1.8,-7.2
Cc1cc(-n2c(=O)c(C#N)cc3c(=O)n4cccc(C)c4nc32)no1,4.8,3.4,-5.9,-3.0,21724*,-9.3,14.5
O=C(c1cccc(F)c1)N1CCN(C(=O)c2cc3ncc(Br)cn3n2)CC1,1.5,-1.7,·,4.4,11290,0.2,-1.7
Cc1cccc2c1=NC(=O)/C(=C/c1c(O)[nH]c(=O)[nH]c1=O)C=2,2.6,6.8,-10.3,6.8,1992,2.1,-2.2

Screens deposited in PubChem by several laboratories.
